Env fusion inh: blocks HIV Env-driven cell-cell fusion; HeLa-JRFL Env/CEM21 cell fusion, luciferase; inhibition, % at 12.3 µM; hit rate 1.1% among 360,000; AID 651610;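 active = mean replicate inhibition score of at least 50 and every replicate individually at or above 50; inconclusive = only one of the two criteria met; inactive = mean below 50 and not all replicates reaching 50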;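 also: 0% = plate neutral controls and 100% = maraviroc near 300 nM; one replicate is shown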
PABP polyA inh: PABP-poly(A) binding inhibition | P11940 | PABP-poly(A) RNA binding, fluorescence polarization | inhibition, % at 35 µM | hit rate 1% among 290,000 | AID 2014;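 active = 50% or more with normal probe brightness, or confirmed in later tests; inconclusive = above 50% with abnormal brightness, or retests that disagree; inactive = below 50% or failed in later tests; about a fifth of its hits are not listed in these tables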;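 also: calls also rest on retests at 20 µM and on dose response follow-up; controls were probe without protein and protein plus probe with vehicle; some compounds called inactive have numbers as strong as hits; many hits fall short of the cut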
Target sequence (P11940 whole entry, looked up): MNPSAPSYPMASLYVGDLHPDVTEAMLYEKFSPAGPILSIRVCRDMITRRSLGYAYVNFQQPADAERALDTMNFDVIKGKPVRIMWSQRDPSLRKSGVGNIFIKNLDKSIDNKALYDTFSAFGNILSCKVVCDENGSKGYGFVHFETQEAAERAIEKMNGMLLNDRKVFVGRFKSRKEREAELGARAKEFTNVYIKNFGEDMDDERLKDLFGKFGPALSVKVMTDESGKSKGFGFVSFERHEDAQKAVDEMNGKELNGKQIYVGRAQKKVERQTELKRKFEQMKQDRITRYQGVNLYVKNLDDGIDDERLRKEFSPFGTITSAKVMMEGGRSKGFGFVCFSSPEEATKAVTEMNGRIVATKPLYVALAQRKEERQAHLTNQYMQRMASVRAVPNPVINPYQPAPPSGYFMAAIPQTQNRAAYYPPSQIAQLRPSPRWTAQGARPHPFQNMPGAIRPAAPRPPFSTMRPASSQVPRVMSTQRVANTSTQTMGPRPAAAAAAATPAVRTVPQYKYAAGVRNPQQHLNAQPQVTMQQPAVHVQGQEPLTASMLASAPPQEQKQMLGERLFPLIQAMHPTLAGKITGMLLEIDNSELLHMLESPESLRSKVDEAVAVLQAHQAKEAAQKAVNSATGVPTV
Rce1 inhib: inhibitors of yeast Ras-converting enzyme; AID 2563; yeast membranes, quenched prenylated peptide cleavage fluorescence; calls only; hit rate 0.27% among 290,000;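 active = fall in fluorescence gain of 50% or more versus controls, with final raw signal at or below 3038400; inconclusive = same 50% fall but final raw signal above 3038400; inactive = fall in fluorescence gain under 50%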;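 also: plate controls were neutral control wells for no effect and wells lacking membranes for full effect; tested at 10 µM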
Yeast UUG start: modulators of start codon recognition fidelity in yeast; activity score, % at 18.7 µM; S. cerevisiae UUG-firefly luciferase reporter, luminescence/redox ratio; AID 602363; hit rate 0.13% among 350,000;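 active = replicate mean at a twofold rise or more, about +100% in these data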;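 also: firefly luciferase made from a UUG start codon reports start codon fidelity; reporter light over untreated wells divided by growth signal over untreated wells; some hits fall short of that in this replicate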
MT1-MMP act inh: inhibitors of human MT1-MMP activation | P50281 | HT1080 RFP-PRO-GFP cells, GFP/RFP ratio fluorescence, overnight; percent of plate control window, DMSO zero | AID 651647 | GFP/RFP ratio change, % at 20 µM | hit rate 0.061% among 360,000;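 active = GFP/RFP ratio change of at least 30% with cell ATP level not reduced by more than half and red fluorescence within 50% of control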; also: strong numbers were not always called active
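system = RFP-PRO-GFP reporter HT1080 cells | dosing = 20 µM single dose, 1% DMSO | timing = overnight cell settling, then overnight compound exposure, 37 °C, 5% CO2 | read-out basis = GFP/RFP fluorescence ratio | controls = DMSO and RFP-L50D-GFP cell wells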
eIF4H FP inh: inhibitors of RNA binding by human eIF4H. Q15056. eIF4H fluorescence polarization binding assay. inhibition, % at 35 µM. hit rate 0.94% among 290,000. AID 2012;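 active = 50% or more with normal probe brightness, or confirmed in later tests; inconclusive = above 50% with abnormal brightness, or retests that disagree; inactive = below 50% or failed in later tests; about a fifth of its hits are not listed in these tables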;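 also: calls also rest on retests at 20 µM and on dose response follow-up; 0% = protein and probe with vehicle and 100% = probe without protein; strong numbers were not always called active; many hits fall short of the cut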
CSC inhib: blocks cancer stem cells; AID 2717; inhibition, % at 7.5 µM; hit rate 1.1% among 300,000; cancer stem cell-like cells viability, luminescence;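 active = mean at 75% or more and at least half the replicates too; inconclusive = mean and replicates disagree; tested in HMLE shEcad cells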;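 also: 0% = median of negative and 100% = median of positive control wells; the first replicate is given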
eIF4H FP inh retest: recorded beside eIF4H FP inh, whose call it bears; inhibition, %; compound at 20 µM; confirmation average;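 mean of two retest wells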
PABP polyA inh retest: further read-out of PABP polyA inh, marked with its call; inhibition, %; compound at 20 µM; confirmation repeats;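 mean of two retest wells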
MT1-MMP act inh RFP: recorded beside MT1-MMP act inh, whose call it bears; RFP signal change, %; measured here: RFP expression control read;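 0 = vehicle wells; hits needed this value within 50% of zero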
An asterisk follows results filed as active; i = inactive; ? = inconclusive; . = not tested or not shown; & = joins results of further samples.

SMILES	Env fusion inh	PABP polyA inh	Rce1 inhib	Yeast UUG start	MT1-MMP act inh	MT1-MMP act inh RFP	eIF4H FP inh	CSC inhib	others
COc1ccc2nc(NCCNC(=S)NCCCN3CCOCC3)c(C#N)cc2c1	13	2	i	.	1	4	18	-12
CCOc1cc(C(=O)NC(=S)Nc2ccc(Cl)c(C(=O)O)c2)cc(OCC)c1OCC	12	11	i	.	2	0	-5	-6
O=C(O)c1ccc2c3n(nc2c1)-c1ccc(Cl)cc1CO3	-123	31	i	.	.	.	38	8
CCOC(=O)C1C(=O)NC(N2CCN(c3ccccc3)CC2)=NC1c1ccco1 (stereo not given)	-3	-2	.	3	-1	3	-10	-14
CCCCCC[n+]1c(-c2ccccc2)csc1Nc1ccccc1	19	-12	i	.	-8	-4	10	?
CS(=O)(=O)C1=NSC2=NC(=O)/C(=C\c3ccc(OS(=O)(=O)c4ccccc4)cc3)C(=N)N21	2	4	i	-27	-4	2	4	-4
CN(C)c1ccc(NS(=O)(=O)c2cc3c4c(c2)CC(=O)N4CCC3)cc1	-5	.	i	-8	-3	3	.	-22
CC(=O)C1=C(C)NC(=O)NC1c1cccc(O)c1 (stereo not given)	-25	2	i	-9	7	10	-1	-2
O=C1c2nc3ccccn3c2C(=O)N1Cc1ccccc1	.	-3	i	.	-1	7	3	6
CC1=Nc2ncnn2C(c2ccccc2)/C1=N\O (stereo not given)	-66	-4	i	-18	-5	-3	-7	-10
CCOC(=O)c1cc2c(ccn2C)n1CC(=O)N1CCN(c2cccc(C(F)(F)F)c2)CC1	-25	22	i	-37	-4	1	16	-10
CCc1ccc(-n2nc3ccc(NC(=O)c4ccc5c(c4)OCO5)cc3n2)cc1	-15	4	i	-20	-6	-1	1	-15
Cc1ccc(Cn2cnc3ccccc32)cc1C	32	7	i	-21	-2	-11	8	5
COCCN(C(=O)c1ccc(OCC(C)C)cc1)c1c(N)n(Cc2ccccc2)c(=O)[nH]c1=O	-7	.	i	.	4	0	.	-12
CC(=O)Nc1cc(-c2ccc(F)cc2)cn2c(-c3ccc(F)c(Cl)c3)cnc12	-9	.	.	-17	-2	4	.	.
COc1cccc(C2CC(c3ccc(C)cc3)n3nc(N)nc3N2)c1 (stereo not given)	66*	-3	i	-19	0	-2	-1	.
CC(C)c1ccc(NC(=S)NN2CCOCC2)cc1	-1	2	i	-19	5	6	-3	-13
O=C(COC(=O)CNS(=O)(=O)c1ccccc1)Nc1ncc(Cl)cc1Cl	14	.	.	6	-1	3	.	.
COc1ccc(-c2c(-c3ccccc3)c(C(=O)C(=O)NCCCN(C)C)n3ccc4cc(OC)c(OC)cc4c23)cc1OC	10	-14	i	10	6	0	-18	-5
CCc1nonc1NC(=O)COc1ccc(Cl)c(C)c1	-5	.	i	.	-1	4	.	25
Cn1cccc1CC(=O)NNC(=O)Nc1ccccc1F	2	.	.	4	0	2	.	-6
CCC(C)C(NC(=O)C1CCC(C)CC1)C(=O)NCCc1ccc(S(N)(=O)=O)cc1 (stereo not given)	5	-12	i	1	-3	1	-5	0
CCCC1Oc2ccccc2C(=O)N(CC(=O)c2ccc3c(c2)OCCO3)C1=O (stereo not given)	-5	.	i	-9	3	3	.	-12
COc1ccc2cc3c(N)nn(C(=O)Cc4ccc(Cl)cc4)c3nc2c1	12	-7	i	-23	-8	-5	-10	10
Cc1oc(-c2ccccc2F)nc1CS(=O)(=O)CC(=O)NCCCN(C)C1CCCCC1	-35	4	i	32	3	4	4	5
CCCC(=O)NNC(=O)CCC(=O)NCc1ccccc1	-26	0	i	-14	0	6	-11	-8
O=S(=O)(c1ccc(-n2cnnn2)cc1)N1CCC(N2CCCCC2)CC1	-3	-14	i	.	3	3	7	3
Cc1cc(C)nc(SCCN(C)C)n1	10	9	i	.	1	7	5	-9
CC(NC(=O)c1cc2sccc2n1C)c1ccc2c(c1)OCCO2 (stereo not given)	-14	-2	i	.	4	-2	4	10
COc1cc(CNCCN2CCOCC2)ccc1OCc1ccc(Cl)cc1	.	17	i	-11	5	7	-3	7
O=C(Nc1cccc([N+](=O)[O-])c1)ONC1=NCCCCC1	11	8	i	-9	.	.	6	-6
COc1cc2c(cc1OC)C(/C=C/c1ccco1)=NCC2	8	45	i	6	-7	2	93	.	eIF4H FP inh retest=17;PABP polyA inh retest=11
O=C(Nc1cccc(Cl)c1N1CCCC1)c1ccco1	5	15	i	-25	-4	1	3	55
Nc1nc(COc2ccccc2)cs1	.	3	i	-9	2	6	0	6
O=C(O)CSC1CC(=O)N(c2ccc(Cl)cc2)C1=O (stereo not given)	-95	-2	i	-11	1	6	-5	-12
CN(C)c1nnnn1-c1ccc(Oc2ncc(C(F)(F)F)cc2Cl)cc1	-4	4	i	.	5	-5	0	-1
COc1cc(C2CC(=O)Nc3cc(C)c(C)cc32)cc(OC)c1OC (stereo not given)	15	5	i	.	-3	-4	-4	50
CC(=O)Nc1cccc(NC(=O)c2ccc([N+](=O)[O-])cc2Cl)c1	11	-3	i	-12	.	.	10	0
Cc1nn(-c2ccc3ccccc3c2)c(=O)c2ccccc12	-28	1	i	-14	-3	-7	-7	-3
Cc1ccc(C(=O)NC(=S)NCC2CCCO2)cc1[N+](=O)[O-] (stereo not given)	-10	-7	i	.	2	1	-4	1
O=C(CN1CCCCC1)Nc1ccccc1-c1ccccc1	.	0	i	-22	0	-2	0	42
COc1cc(C(=O)NC2CCN(C)CC2)ccc1Nc1ncc2c(n1)N(Cc1ccccc1)CCC(=O)N2C	-307	.	.	-13	30	14	.	.
Cc1ccc(NC(=O)c2cc3c(=O)oc4ccc(C)cc4c3s2)nc1	.	0	i	.	.	.	0	1
COc1ccc(C2(CNC(=O)c3cc(OC)c(OC)c(OC)c3)CCCC2)cc1OC	5	.	.	-13	-1	-3	.	.
Clc1nc(Cl)nc(N(c2ccccc2)c2ccccc2)n1	16	0	i	-22	4	5	-6	-1
C=CCn1c(C)nnc1SCC(=O)Nc1cc(S(=O)(=O)N2CCCC2)ccc1Cl	8	.	.	-20	3	-1	.	.
O=c1c2ccc([N+](=O)[O-])cc2ncn1CCOc1ccc(Cl)cc1	13	1	i	-12	2	0	-11	6
CCCCCC(=O)N1CCN(CCN=CC2=C(O)CC(c3ccco3)CC2=O)CC1 (stereo not given)	-72	-1	i	-6	-2	2	-13	-2
COC(=O)c1nc(NC2=NCCCCC2)n[nH]1	-4	23	i	-50	-2	-7	-1	-8
CCc1ccccc1NC(=O)CSc1nnc(C2CC2)n1CC1CCCO1 (stereo not given)	-5	4	i	-17	0	5	-6	12

A draw from above in order of number of heavy atoms, low to high:
SMILES	Env fusion inh	PABP polyA inh	Rce1 inhib	Yeast UUG start	MT1-MMP act inh	MT1-MMP act inh RFP	eIF4H FP inh	CSC inhib	others
O=C(CN1CCCCC1)Nc1ccccc1-c1ccccc1	.	0	i	-22	0	-2	0	42
O=c1c2ccc([N+](=O)[O-])cc2ncn1CCOc1ccc(Cl)cc1	13	1	i	-12	2	0	-11	6
CCCCCC(=O)N1CCN(CCN=CC2=C(O)CC(c3ccco3)CC2=O)CC1 (stereo not given)	-72	-1	i	-6	-2	2	-13	-2

Remaining list, next part:
SMILES	Env fusion inh	PABP polyA inh	Rce1 inhib	Yeast UUG start	MT1-MMP act inh	MT1-MMP act inh RFP	eIF4H FP inh	CSC inhib	others
CC1CCN(S(=O)(=O)c2cccc(C(=O)NNC(=O)c3ccco3)c2)CC1	5	-9	i	1	1	0	5	-20
CCCN(CC(=O)Nc1ccc(F)c(F)c1F)CC(=O)Nc1c(Cl)cccc1Cl	6	5	i	7	-4	-4	-1	3
Clc1ccccc1-c1cc2nc(NCCCn3ccnc3)ccn2n1	-55	.	.	-1	7	-4	.	.
CCC(=O)Nc1ccc(N2CCCCC2)c(C(=O)Nc2ccc(OC)cc2)c1	-1	-8	i	6	1	0	-10	-5
COc1ccccc1Nc1c2ccccc2nc2ccccc12	57*	0	i	-9	-6	-13	-1	22
O=C(c1ccccn1)N(CC1CCCO1)C1(C(=O)NC2CCCCC2)CCCCC1 (stereo not given)	34	-2	i	-8	7	10	-2	-2
CCOC(=O)CSc1nc2ccccc2c(=O)n1NC(=O)c1ccccc1	-177	4	i	-1	-1	5	6	-2
COc1ccc2nc(NC(=O)[C@@H]3CCCN3C(=O)c3cccs3)sc2c1	-10	3	i	.	-5	2	8	4
O=C(COc1ccccc1-c1ccccc1)NCCN1C(=O)S/C(=C\c2cccnc2)C1=O	-3	5	i	.	1	-7	3	1
O=c1oc(-c2ccccc2)nc2c1C1(CCCCC1)Cc1ccccc1-2	4	4	i	-9	-5	3	-7	17
COCc1cc(CNC(=O)C2CCC(=O)N(Cc3ccccc3F)C2)[nH]n1 (stereo not given)	-22	3	i	-15	0	-1	-1	2
COc1ccc(CCNC(=O)c2c(O)c3c([nH]c2=O)CCCC3)cc1	.	2	i	-10	0	-2	4	.
O=C(CSc1cccc[n+]1[O-])NCC1CCCCC1	1	1	i	-2	0	2	2	7
CC(C)COP(=O)(c1ccc(N(C)C)cc1)C(O)c1ccccc1 (stereo not given)	22	-1	i	.	4	3	0	1
COc1ccc(CCNC(=O)C2CC(c3ccccc3F)=NO2)cc1 (stereo not given)	-14	8	i	11	3	2	-5	14
O=C(c1ccc2c(=O)n(-c3ccccc3)c(=O)[nH]c2c1)N1CCN(c2ccc(F)cc2)CC1	-376	-6	i	14	1	-12	-6	3
CCOc1c(Br)cc(CNc2ccc3c(c2)OCCO3)cc1OC	.	-10	i	-40	-4	-9	0	0
CCOC(=O)CSc1snnc1C	-41	.	i	-5	-3	-2	.	2
CCOC(=O)c1sc(NC(=O)c2cncc(Br)c2)nc1C	.	-6	i	.	.	.	-17	.
COc1ccc(N(C(=O)c2ccco2)S(=O)(=O)c2cc(OC)ccc2OC)cc1	.	8	i	-5	9	11	-8	-12
C[C@H](CO)N1C[C@H](C)[C@@H](CN(C)C(=O)Cc2ccccc2)OCCCC[C@H](C)Oc2ccc(NC(=O)NC3CCCCC3)cc2C1=O	-302	.	.	-9&-4	7	1	.	.
CCN(CC(=O)Nc1ccc(OC)cc1)C(=O)CSCC(=O)Nc1cc(C)on1	-22	.	.	14	-3	2	.	0
Cc1nn(CCCC(=O)NCCc2ccccc2)c(=O)c2nccn12	-29	-4	i	-16	-1	3	-1	0
Cc1ccc(CN2CC(C(=O)N3CCN(S(=O)(=O)c4ccccc4)CC3)CC2=O)cc1 (stereo not given)	65*	.	.	17	-1	1	.	.
CCC(C(=O)NC1CCCCC1)n1c(SCc2cccc(F)c2)nc2ccncc21 (stereo not given)	8	2	i	-17	11	-7	4	?
Cc1cc(C)n(-c2ccc(C(=O)Nc3cc(C(F)(F)F)ccc3N3CCOCC3)cc2)n1	.	25	i	.	-4	-1	-2	-11
Cc1cc(C(=O)N/N=C/c2c[nH]c3ccccc23)cs1	8	5	i	.	3	4	0	24
N#CC/C(N)=N/NC(=O)CCCNc1ncc(C(F)(F)F)cc1Cl	-74	-9	i	.	8	-4	2	-10
C#CCC(NC(=O)c1ccc(C(F)(F)F)cc1)C(=O)NCCC (stereo not given)	13	.	.	-5	-2	1	.	-9
COc1cc(C(=O)OC2CCN(C)CC2)cc(OC)c1OC	-176	7	i	-20	-5	1	2	27
COc1ccc(N(CC(=O)Nc2ccccc2C(=O)NCC(C)C)S(C)(=O)=O)cc1	11	8	i	8	1	2	-11	-17
CCOc1ccccc1/C=c1\sc2nc(-c3ccco3)nn2c1=O	.	53*	i	0	-6	6	82*	7
